CtBP-E1A inh = qHTS Assay for Inhibitors of the CtBP/E1A Interaction | AlphaScreen GST-E1A/His-CtBP binding, 1536-well; hits give low values; control for the full effect not named in the record | activity change, % (test concentration not listed) | actives 0.49% (n = 340,000); in the data active means activity change below about -65%; inconclusive means about -30% to -65%; inactive means above about -30%; note: % is set by controls: 0 for no effect and ±100 for the full control effect; compound concentration not given in the record
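AlphaScreen with 125 nM GST-E1A and 125 nM His-CtBP (5X stocks) in Tris pH 8.0, 300 mM NaCl, BSA, Tween 20, TCEP. Compounds preincubated 2 h at 37 deg C, then glutathione donor/nickel acceptor beads added for 1 h at 37 deg C in dark.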
gsp agonist = qHTS for Agonist of gsp, the Etiologic Mutation Responsible for Fibrous Dysplasia/McCune-Albright Syndrome: qHTS | gsp mutant cells, cAMP HTRF, 30 min; control for the full effect not named in the record | Potency, µM (doses to about 76.9 µM), inactives show at the highest dose activation (cAMP increase), usual class: activators | actives 0.13% (n = 340,000); active = well fitted activation curve with a large enough effect; inconclusive = small, poorly fitted or top-dose-only effect, or another doubt; inactive = no such curve, though single readings can be large or run the other way; cell line not stated here;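 note: phosphodiesterase inhibitor Ro 20-1724 added with compounds to block cAMP breakdown; potency is the fitted concentration of half-maximal effect; nearly all actives have a fitted effect of over 60% in size; about a fifth of the inactives were tested at one dose only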
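Cells stably selected in G418 were plated at 2000/well, grown 16-24 hr, then given compounds in DMSO with the PDE inhibitor […] (300 uM solution added) for 30 min at 37C; cAMP was read by HTRF.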
gsp antagonist = qHTS for Antagonists of gsp, the Etiologic Mutation Responsible for Fibrous Dysplasia/McCune-Albright Syndrome: qHTS; gsp-mutant cells, cAMP HTRF, 30 min; control for the full effect not named in the record; Potency, µM (titrated, usually from 76.9 µM), without a hit: top-dose activity change, negative = inhibition, hits mostly inhibitors; actives 0.4% (n = 340,000); active = falling curve of any shape with a large fitted effect; inconclusive = falling curve, mostly with a smaller effect; inactive = flat or rising curve; cell line not stated here;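 note: intracellular cAMP measured with PDE inhibitor Ro 20-1724 present during compound exposure; potency is the fitted concentration of half-maximal effect; % is set by controls: 0 for no effect and ±100 for the full control effect; nearly all actives have a fitted effect of over 65% in size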
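HTRF cAMP measurement after 30 min RT detection following 30 min, 37C compound treatment alongside […] (added as 300 uM solution) in G418-selected cells seeded at 2000/well and grown 16–24 h.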
D2 agonist = Beta-Arrestin HTS for Positive Allosteric Modulators of the Human D2 Dopamine Receptor: Agonists | actives 0.084% (n = 360,000) | activation, % (concentration not given with the values) | D(2) dopamine receptor (Homo sapiens), P14416 | AID 624465, 2012 | DiscoveRx PathHunter D2 beta-arrestin, luminescence, 90 min; 100% = 57 uM dopamine signal; in the data active = activation above about 40%; inconclusive = about 15% to 40%; inactive = below about 15%; note: compound concentration not given in the record; the text of the record calls up to 30% inactive
Target sequence (P14416 whole entry, looked up): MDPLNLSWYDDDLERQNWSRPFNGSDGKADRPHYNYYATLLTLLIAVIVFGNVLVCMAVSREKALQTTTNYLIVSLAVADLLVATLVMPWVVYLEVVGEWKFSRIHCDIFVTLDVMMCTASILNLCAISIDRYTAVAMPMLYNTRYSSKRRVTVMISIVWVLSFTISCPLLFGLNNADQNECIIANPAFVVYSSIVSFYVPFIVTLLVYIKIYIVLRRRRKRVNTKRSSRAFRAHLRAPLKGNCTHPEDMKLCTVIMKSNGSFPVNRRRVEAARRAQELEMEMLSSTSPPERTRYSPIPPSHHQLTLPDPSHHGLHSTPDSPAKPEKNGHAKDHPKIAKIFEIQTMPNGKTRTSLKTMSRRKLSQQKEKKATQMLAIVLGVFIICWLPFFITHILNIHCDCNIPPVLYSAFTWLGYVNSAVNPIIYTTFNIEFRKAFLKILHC
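DiscoveRx PathHunter D2 beta-arrestin cells (2,100/well) attached overnight, then compound-stimulated 90 min at 37 C in HBSS/10 mM HEPES/0.1% Tween-20 buffer; beta-galactosidase complementation read by luminescence after 1 h at ambient temperature. Dopamine 57 uM final (EC100) as control.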
D2 potentiator = Beta-Arrestin HTS for Positive Allosteric Modulators of the Human D2 Dopamine Receptor: Potentiators; DiscoveRx D2 beta-arrestin cells, luminescence, 90 min; 100% = 57 uM dopamine signal; actives 0.23% (n = 360,000); AID 624464, 2012; D(2) dopamine receptor (Homo sapiens), P14416; potentiation, % (no concentration beside the values); active = potentiation of 50% or more; inconclusive = 30% to 50%; inactive = 30% or less;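 note: compound concentration not given in the record; tested on top of an EC20 dose of dopamine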
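PathHunter D2 cells, attached overnight at 37 deg C, received compound in DMSO plus dopamine at EC20 (50 nM final) for 90 min at 37 deg C. Beta-arrestin recruitment was read as luminescence after 1 h with detection reagent at ambient temperature.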
Six1-Eya2 inh = qHTS Assay for Inhibitors of the Six1/Eya2 Interaction | activity change, % (no concentration beside the values) | AID 651725, 2012 | actives 0.56% (n = 360,000) | AlphaScreen GST-Six1/His-Eya2 binding, biochemical; hits give low values; control for the full effect not named in the record; in the data active = activity change below about -65%; inconclusive = about -30% to -65%; inactive = above about -30%; note: % is set by controls: 0 for no effect and ±100 for the full control effect; compound concentration not given in the record
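Homogeneous AlphaScreen proximity assay pairing GST-Six1 with His-tagged Eya2 (added as 5X mix: 250 nM and 500 nM) in 50 mM Tris pH 8.0, 300 mM NaCl, 1 mM TCEP. Glutathione donor and nickel acceptor beads; 1 h, 37 °C, dark.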
* hit, by the source's call; ? = inconclusive; nt = not tested or not shown; [ ] = another dose, or the depositor's remark.

nr	Structure	gsp antagonist	D2 agonist	gsp agonist	CtBP-E1A inh	D2 potentiator	Six1-Eya2 inh
1	CC(CC(=O)Nc1ccc2c(c1)c(=O)n(C)n2Cc1ccc(F)cc1)C(F)(F)F (configuration not stated)	nt	5.4	nt	8	-6	3
2	CC12CCC(C(=O)Nc3cccnc3)(CC1=O)C2(C)C (configuration not stated)	2%	-2.7	-26%	4	-14	-3
3	Cn1c(N)c(C(=O)COC(=O)c2ccc3c(c2)OCCO3)c(=O)n(C)c1=O	7%	-3.9	-11%	3	4	3
4	Cc1cc(C)cc(NC(=O)CCn2ccnc2C)c1	1%	-0.3	-3%	-9	-22	7
5	COc1ccc(/C=C/C(=O)NC(=S)NNC(=O)c2ccco2)cc1OC	-12%	2.1	-8%	1	1	-2
6	O=C(c1cnc(N2CCN(c3ncccn3)CC2)c2ccccc12)N1CCN(c2ncccn2)CC1	-29%	-0.3	-20%	?	3	?
7	COc1ccc(C(=O)NC2CCN(C(=O)NC3CCCCC3)CC2)cc1	-1%	-1.5	18%	4	-4	2
8	COc1ccc(NC(=O)COc2ccc(-c3ccccc3)cc2)cc1	2%	2.1	17%	2	-3	3
9	COc1ccc(C(=O)NCC(=O)N2CCCC(C)C2)cc1OC (configuration not stated)	5%	-2.3	-4%[15.4 µM]	-11	-4	4
10	COc1ccc(Cc2nc(-c3ccccn3)no2)cc1OC	14%	0.1	-62%[inhibitor]	7	-2	-2
11	CC1(C)CC(=O)C2=C(C1)OC(N)=C(C#N)C2c1ccc[nH]1 (configuration not stated)	-5%	-2.7	-25%[15.4 µM]	0	-1	-6
12	COc1ccc(NCN2C(=O)CCC2=O)cc1	14%	-4.1	20%	-1	-3	2
13	O=C(CCc1ccccc1)Nc1ccccc1C(=O)NCc1ccco1	8%	-2.1	-50%[inhibitor]	-1	-6	-1
14	COc1cc(NC(=O)C2CC2C)c(C(=O)O)cc1OC (configuration not stated)	-19%	-1.0	-21%	1	-6	1
15	Cn1cccc1Cc1nnc(SCC(=O)Nc2ccc(Cl)cc2)n1-c1ccc(F)cc1	-8%	-0.2	-24%	-14	-6	-22
16	COc1ccc(Cl)cc1Cn1c(C)c(C(=O)NCc2cccc([N+](=O)[O-])c2)sc1=O	nt	7.3	nt	-17	-1	-29
17	CCCCCC1CC(/C(C)=N/NC(N)=O)OC1=O (configuration not stated)	4%	-7.4	-41%[inhibitor]	3	-11	12
18	CC(O)[C@H]1CN=C(N)N1CC(C)(C)C (some centres not stated)	7%	-3.3	-31%[inhibitor]	nt	-8	2
19	CCCCSc1nc(C)cc(NC(=S)Nc2ccc(OC)cc2)n1	2%	-3.1	-15%	-6	-14	-1
20	COc1ccc(-c2cc3c(=O)n(CC(=O)Nc4ccc(Cl)cc4)nc(C)n3n2)cc1	14%	-3.0	12%	2	-9	5
21	O=C(c1ccco1)N1CCN(S(=O)(=O)c2ccc3[nH]c(=O)oc3c2)CC1	3%	-1.5	-16%	0	-15	7
22	O=C1c2ccccc2C(=O)N1Cc1ccccc1F	-5%	-2.0	11%[15.4 µM]	8	-1	-1
23	Cc1ccc(-n2c(SCC(=O)Nc3cccc(S(=O)(=O)NC4=NCCCCC4)c3)nc3ccccc3c2=O)cc1	-9%	1.4	-11%	-4	11	-7
24	COCCCNC(=S)NNC(=O)C(O)(c1ccccc1)c1ccccc1	nt	-4.7	5%[15.4 µM]	5	-26	5
25	CCCCC(Sc1nc(N)c(NC(=O)c2ccc(OCC)cc2)c(=O)[nH]1)C(=O)O (configuration not stated)	6%	-2.2	16%[15.4 µM]	0	-5	13
26	Cc1ccc(C(=O)NNC(=O)c2cccc(S(=O)(=O)N3CCN(c4ccccc4)CC3)c2)cc1	5%	-4.0	-4%	2	-8	1
27	Cc1ccc(C)c(C(=O)CSc2nc(N)cc(=O)[nH]2)c1	-4%	-0.8	-4%	nt	-3	-3
28	O=C(OCC(=O)N1CCN(c2ccccc2)CC1)c1ccc2ncsc2c1	-18%	-1.1	-14%	-8	-16	-17
29	COc1ccc(CCNC(=O)C2CC(=O)N(c3ccc(C)cc3)C2)cc1 (configuration not stated)	-2%	-2.4	7%	-4	-7	-13
30	Cc1cc(NC(=O)C23CC4CC(CC(C4)C2)C3)n[nH]1	4%	0.0	-25%	7	-7	-7
31	CCCCN(C(=O)c1cnccn1)c1c(N)n(CCC)c(=O)[nH]c1=O	-1%	0.9	-10%	8	0	7
32	CCn1c(SCC(=O)Nc2cccc(S(=O)(=O)N(C)c3ccccc3)c2)nnc1C1CC1	-13%	-1.3	-29%	-10	-13	-3
33	COc1cccc(NC(=O)CSc2nc3ccccc3nc2N2CCCC2)c1	-10%	-4.5	-30%	45	-11	11
34	CC(C)(C)OC(=O)N1CC(O)CC1C(=O)OCC(=O)c1ccc(-c2ccccc2)cc1 (configuration not stated)	-2%	-5.9	-16%	1	0	2
35	COc1ccc(C(=O)NCc2c(C)nn(Cc3ccccc3)c2C)cc1S(=O)(=O)N1CCOCC1	0%	-1.4	9%	nt	2	3
36	CCCCCN(C(=O)CCC(=O)OCc1ccc(C(C)(C)C)cc1)c1c(N)n(CCCC)c(=O)[nH]c1=O	-6%	1.3	4%[15.4 µM]	5	-14	4
37	C=CCNC(=S)N1CCN(Cc2ccccc2)CC1	9%	-3.4	-45%[inhibitor]	15	-8	0
38	CCOc1ccc(C=NNc2ccc(S(=O)(=O)Nc3ccccc3C(=O)O)cc2[N+](=O)[O-])cc1	-29%	-0.9	2%	?	-33	?
39	O=C(O)C(Cc1ccccc1)N1C(=O)c2c(Cl)c(Cl)c(Cl)c(Cl)c2C1=O (configuration not stated)	9%	-1.8	4%[15.4 µM]	-4	-4	-24
40	CCOc1ccccc1NC(=O)CSc1ncnc2c1oc1ccccc12	12%	-1.3	5%	11	-2	1
41	Cc1ccc([N+](=O)[O-])cc1S(=O)(=O)Nc1ccc(C(=O)NCc2ccccn2)cc1	-4%	-1.1	9%	-24	4	-5
42	COc1ccccc1OCC(=O)NN1Cc2ccccc2C1=N	21%	-2.9	-19%	0	-34	25
43	Fc1ccc(Br)cc1C1C=C(c2ccc(Br)cc2)Nc2ncnn21 (configuration not stated)	-10%	-2.9	9%	6	-15	-1
44	COCCNC(=O)/C(C#N)=C/c1ccc(-c2ccc(OC)cc2[N+](=O)[O-])o1	3%	-1.1	-9%	2	-15	1
45	O=C1N(C2CCCC2)C[C@@H]2C[C@@H](c3cccn3-c3nccs3)N3CCC[C@@]123	10%	-2.0	-20%[15.4 µM]	-13	-13	-14
46	O=C(Oc1cc(-c2ccccc2)no1)c1ccc(Cl)cc1	1%	-2.0	-14%	10	-4	7
47	C=CCc1ccc(OCCOc2cccc3cccnc23)c(OC)c1	-16%	-1.6	3%	-7	-9	-10
48	O=S1(=O)CCN(c2ccccc2CC(c2c[nH]c3ccccc23)c2c[nH]c3ccccc23)CC1	-6%	1.3	1%	-3	-6	-19
49	Cc1cc(C)n2cc(CSc3nnnn3-c3ccccc3C)nc2n1	-10%	-0.2	-22%	-3	-14	-4
50	CC(C)(C)NCC(O)c1cc(O)cc(O)c1 (configuration not stated)	-1%	4.5	nt	13	-1	4
51	Clc1cccc(N2CCN(Cc3nc(-c4ccccc4)no3)CC2)c1	-1%	-3.0	-4%	11	-5	4
52	CC(=O)c1cccc(NC(=O)Nc2nc(C)cc(C)n2)c1	-1%	2.8	1%	6	-17	3
53	O=C(c1ccc2nc(Cc3cccc(Cl)c3)oc2c1)N1CCOCC1	-11%	-1.4	-4%	6	-7	0
54	OCCNCc1cccc(-c2ccccc2)c1O	1%	-2.8	13%	2	-5	8

11 compounds already listed, ordered by SMILES length, rising.
nr	Structure	gsp antagonist	D2 agonist	gsp agonist	CtBP-E1A inh	D2 potentiator	Six1-Eya2 inh
54	OCCNCc1cccc(-c2ccccc2)c1O	1%	-2.8	13%	2	-5	8
50	CC(C)(C)NCC(O)c1cc(O)cc(O)c1 (configuration not stated)	-1%	4.5	nt	13	-1	4
42	COc1ccccc1OCC(=O)NN1Cc2ccccc2C1=N	21%	-2.9	-19%	0	-34	25
46	O=C(Oc1cc(-c2ccccc2)no1)c1ccc(Cl)cc1	1%	-2.0	-14%	10	-4	7
52	CC(=O)c1cccc(NC(=O)Nc2nc(C)cc(C)n2)c1	-1%	2.8	1%	6	-17	3
40	CCOc1ccccc1NC(=O)CSc1ncnc2c1oc1ccccc12	12%	-1.3	5%	11	-2	1
43	Fc1ccc(Br)cc1C1C=C(c2ccc(Br)cc2)Nc2ncnn21 (configuration not stated)	-10%	-2.9	9%	6	-15	-1
44	COCCNC(=O)/C(C#N)=C/c1ccc(-c2ccc(OC)cc2[N+](=O)[O-])o1	3%	-1.1	-9%	2	-15	1
41	Cc1ccc([N+](=O)[O-])cc1S(=O)(=O)Nc1ccc(C(=O)NCc2ccccn2)cc1	-4%	-1.1	9%	-24	4	-5
45	O=C1N(C2CCCC2)C[C@@H]2C[C@@H](c3cccn3-c3nccs3)N3CCC[C@@]123	10%	-2.0	-20%[15.4 µM]	-13	-13	-14
48	O=S1(=O)CCN(c2ccccc2CC(c2c[nH]c3ccccc23)c2c[nH]c3ccccc23)CC1	-6%	1.3	1%	-3	-6	-19

Screens (PubChem BioAssay)
